# KCNQ2 block: KCNQ2 potassium channel inhibitors, primary screen, cell-based, CHO-K1, FluxOR thallium flux, B-score (AID 2156). Potassium voltage-gated channel subfamily KQT member 2 (Rattus norvegicus), O88943. 20 min; active compounds read low; only compounds with negative scores are shown here; some inactives read as strong as hits. B-score at 10 µM. actives 1.1% (n = 310,000);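 active = fluorescence ratio B-score at most minus 3 library SDs, with starting brightness B-score within 2 library SDs, cut at about -5.5 in these data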
# Target sequence (O88943 whole entry, looked up): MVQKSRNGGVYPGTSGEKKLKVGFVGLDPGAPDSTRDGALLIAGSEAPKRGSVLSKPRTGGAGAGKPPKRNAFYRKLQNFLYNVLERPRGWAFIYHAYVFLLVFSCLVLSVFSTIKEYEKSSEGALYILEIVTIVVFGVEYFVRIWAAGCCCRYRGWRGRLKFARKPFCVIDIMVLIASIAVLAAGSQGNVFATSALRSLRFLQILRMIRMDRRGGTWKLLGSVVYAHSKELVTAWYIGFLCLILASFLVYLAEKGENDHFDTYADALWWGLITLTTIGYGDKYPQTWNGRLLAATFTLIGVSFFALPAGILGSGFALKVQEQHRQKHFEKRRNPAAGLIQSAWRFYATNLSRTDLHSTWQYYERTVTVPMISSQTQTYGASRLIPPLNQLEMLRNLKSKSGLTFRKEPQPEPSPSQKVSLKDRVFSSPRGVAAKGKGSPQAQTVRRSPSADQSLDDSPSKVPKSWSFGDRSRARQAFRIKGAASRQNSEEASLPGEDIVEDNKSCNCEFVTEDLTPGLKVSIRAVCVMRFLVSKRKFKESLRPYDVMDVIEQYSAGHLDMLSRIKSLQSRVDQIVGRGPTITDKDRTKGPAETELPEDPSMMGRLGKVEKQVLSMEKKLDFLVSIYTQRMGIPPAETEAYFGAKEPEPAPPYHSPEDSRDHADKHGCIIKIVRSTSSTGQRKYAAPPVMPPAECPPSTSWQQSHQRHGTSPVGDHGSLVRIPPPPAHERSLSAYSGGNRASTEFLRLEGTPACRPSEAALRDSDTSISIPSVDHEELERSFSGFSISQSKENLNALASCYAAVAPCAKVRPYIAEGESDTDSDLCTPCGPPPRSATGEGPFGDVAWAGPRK
# KCNQ2 block baseline: also measured in KCNQ2 block; calls as there; B-score; measured here: initial fluorescence intensity artifact check;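 brightness before thallium and not channel activity; 0 = typical well and far values either way flag optical interference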
# Starred values were filed as active, the others as inactive; i = inactive.
nr | Compound | KCNQ2 block baseline | KCNQ2 block
1 | Cc1nn(C)c(C(=O)N2CCOCC2)c1Cl | -1.3 | i
2 | CCOc1ccccc1NC(=O)c1nc(-c2ccccc2)oc1C | 0.38 | i
3 | CCOC(=O)N1CCN(C(=O)CCSc2ccccc2)CC1 | 0.45 | i
4 | CCC(C)N1C(=O)CCC1C(=O)O (stereo not given) | -0.94 | i
5 | Nc1nc(SCC(=O)N2CCCC2)[nH]c(=O)c1NC(=O)c1ccco1 | 1.5 | i
6 | CC(C(=O)N1CCc2ccccc21)n1cccc1 (stereo not given) | 1.6 | i
7 | O=C(OCC(=O)N1CCCc2ccccc21)c1cc(S(=O)(=O)N2CCOCC2)ccc1F | 2.2 | i
8 | CCOc1ccc(C(C)=O)cc1COC(=O)c1cccnc1SC | 0.72 | i
9 | C=CCn1c(SCC(=O)c2cc(C)n(C)c2C)nnc1-c1ccncc1 | 2.5 | i
10 | Cc1ccc(N2C(=O)c3ccccc3C2C(=O)c2ccc(C)c(C)c2O)cc1 (stereo not given) | -0.13 | i

# The list goes on:
nr | Compound | KCNQ2 block baseline | KCNQ2 block
11 | CCOc1ccc(Cc2nnc(SCC(=O)Nc3ccc(OC)cc3)n(N)c2=O)cc1 | 0.65 | i
12 | COc1ccc(CC(=O)NNC(=O)CCC(=O)Nc2cc(C)ccc2C)cc1 | 1.7 | i
13 | Cc1ccc(NCC(=O)N/N=C/c2cccn2C)cc1 | -0.29 | i
14 | CCn1cc(C(=O)NCc2ccc(C)cc2)c(=O)c2cc(S(=O)(=O)N(C)C)ccc21 | 0.55 | i
15 | C/C(CC(=O)Nc1ccc(Cl)c(C(F)(F)F)c1)=N\NC(N)=S | 1.6 | i
16 | COc1ccc(-c2cc3nc(C)c(CCC(=O)NCc4ccc(F)cc4)c(C)n3n2)c(OC)c1 | 0.85 | i
17 | CCOC(=O)COc1ccc(Br)cc1/C=C\c1[nH]c(=O)[nH]c(=O)c1[N+](=O)[O-] | -0.07 | i
18 | CCOC(=O)C(C)n1cnc2c(nnn2Cc2ccc(C)cc2)c1=O (stereo not given) | 0.27 | i
19 | COCCOC(=O)c1c(C)nc(SCC(=O)Nc2ccc(C)cc2)c(C#N)c1-c1ccco1 | 0.28 | i
20 | Cc1onc(-c2ccccc2Cl)c1C(=O)NCc1nc(-c2ccc(C(F)(F)F)cc2)no1 | -2.3 | i

# The results go on:
nr | Compound | KCNQ2 block baseline | KCNQ2 block
21 | CCOc1cc(Br)ccc1S(=O)(=O)NCc1ccccc1 | 0.03 | i
22 | CCOc1ccc(-n2c(C)nc3cc(C(=O)NCc4ccc5c(c4)OCO5)ccc32)cc1 | 0.21 | i
23 | Cc1ccc(NC(=O)C2CCN(S(=O)(=O)c3ccc(Cl)c(C(F)(F)F)c3)CC2)nc1 | -0.05 | i
24 | CCc1nc(NCc2ccccc2)c(C#N)c2c1CCCC2 | -1.9 | i
25 | COc1ccc(CNC(=O)CC23CC4CC(CC(C4)C2)C3)cc1OC | -1.9 | i
26 | COc1c(OC(C)=O)c(=O)n2c3ccccc3c3ccnc1c32 | -0.05 | i
27 | Cc1cccc2c1CC(C)(C)N/C2=C\C(N)=O | 1.5 | i
28 | Cc1ccc(-c2ncccc2OC(=O)C23CC4CC(CC(C4)C2)C3)cc1 | -0.54 | i
29 | O=C(O)c1ccc(NS(=O)(=O)c2cc(Cl)ccc2Cl)cc1 | -1.5 | i
30 | Clc1cc(Cl)cc(C2=NCCC(c3ccccc3)O2)c1 (stereo not given) | 0.12 | i

# (list continues)
nr | Compound | KCNQ2 block baseline | KCNQ2 block
31 | CC(=O)c1cccc(Oc2cc(NN3CCCCC3)c([N+](=O)[O-])cc2[N+](=O)[O-])c1 | -0.57 | i
32 | Cc1nn(C)c(C)c1S(=O)(=O)NC1CCCC1 | -1.1 | i
33 | CCOc1ccc(N2C(=O)CC(/C=C3/N(C)c4ccccc4C3(C)C)C2=O)cc1 (stereo not given) | 2.1 | i
34 | Cc1sc2nc(COC(=O)c3cccc(OC(F)F)c3)[nH]c(=O)c2c1C | -1.7 | i
35 | O=C(O)COc1ccc2c(c1)O/C(=C\c1ccco1)C2=O | -0.88 | i
36 | N#C/C(=C\c1ccc([N+](=O)[O-])cc1)C(=O)Nc1ccccc1O | -0.62 | i
37 | O=C(CC1CCCC1)NNC(=O)c1ccc(F)cc1 | -0.89 | i
38 | Cc1ccc(NC(=O)CCC(=O)N/N=C/C=C/c2ccccc2)cc1 | 0.74 | i
39 | COc1ccc(CNC(=O)C2CCN(S(=O)(=O)c3ccc(SC)cc3)CC2)cc1 | -0.1 | i
40 | COc1ccc(C(=O)N/C(=C\c2ccc3c(c2)OCO3)C(=O)Nc2ccc(C(=O)O)cc2)cc1 | -0.79 | i

# Later entries
nr | Compound | KCNQ2 block baseline | KCNQ2 block
41 | CCC(Cc1ccccc1)NC(=O)CCc1ccccc1 (stereo not given) | 0.2 | i
42 | COC(=O)[C@@H]1CC[C@H](C)[C@@H](c2ccc(C)cc2)N1C(=O)c1ccc(/C=N/O[C@@H](C)c2cn([C@H](CO)Cc3ccccc3)nn2)cc1 | -0.98 | i
43 | COc1cccc(Nc2nc(-c3sc(NC(=O)CC(C)C)nc3C)cs2)c1 | 2.1 | i
44 | CC(C)C[C@H](NC(=O)N1CC(=O)Nc2ccccc21)C(=O)N1CCC(C(=O)O)CC1 | -1.7 | i
45 | COc1cc(C2C(C(=O)c3ccc(C)o3)=C(O)C(=O)N2c2cc(C)on2)cc(Br)c1O (stereo not given) | -0.43 | i
46 | O=C(CCn1c(=O)[nH]c2ccsc2c1=O)N1CCN(Cc2ccc3c(c2)OCO3)CC1 | 1.7 | i
47 | Cc1ccc(C(=O)C(C)OC(=O)C2=COCCO2)cc1C (stereo not given) | 0.48 | i
48 | Cc1ccc(-c2csc(NC(=O)CSc3nc(C)cs3)n2)cc1 | -0.4 | i
49 | CCOC(=O)c1c(NC(=S)Nc2ccccc2)sc(C)c1C | 0.13 | i
50 | COc1ccc(C(C(=O)NC(C)(C)C)N(Cc2ccco2)C(=O)CCC(=O)Nc2cc(C)on2)cc1 (stereo not given) | 0.13 | i

# (continued)
nr | Compound | KCNQ2 block baseline | KCNQ2 block
51 | C=CCn1c(CNC(=O)c2ccco2)nnc1SCC(=O)c1ccccc1 | 0.79 | i
52 | Cc1ccccc1NC(=O)Cn1nc(C(=O)O)c2ccccc2c1=O | 0.02 | i
53 | O=C(COC(=O)CNC(=O)c1ccccc1)Nc1ccccc1Cl | 0.44 | i
54 | OC(CC#CCN1CCCCC1)(c1ccccc1)c1ccccc1 | -0.65 | i
55 | Cc1c(NC(=O)Nc2ccc(C(C)C)cc2)c(=O)n(-c2ccccc2)n1C | -1.8 | i
56 | COc1ccc(/C=C/C(=O)N2CCN(c3ccccn3)CC2)c2ccccc12 | -0.46 | i
57 | Cn1nc(C(=O)NC2CCCCC2)c2ccccc2c1=O | -0.02 | i
58 | O=C1NC(Cc2c[nH]c3ccccc23)C(=O)N1Cc1ccccc1 (stereo not given) | -1.1 | i
59 | COCCN1C(=O)Cc2c1nc(N)c1c(N)nc(N3CCN(c4ccc(F)cc4)CC3)c(C#N)c21 | -0.31 | i
60 | CCc1ccc2[nH]c(=O)c(CN(CCCN3CCOCC3)C(=O)Nc3cccc(Cl)c3)cc2c1 | -0.92 | i

# Other records.
nr | Compound | KCNQ2 block baseline | KCNQ2 block
61 | Cc1ccc2cc(CN(C)C(=O)C3CCCO3)c(=O)[nH]c2c1 (stereo not given) | -1.2 | i
62 | Cc1ccccc1S(=O)(=O)Cc1ccc(C(=O)NC2CCCCCC2)o1 | -1.1 | i
63 | O=C(NNC(=S)NCc1ccccc1)c1ccc(Br)cc1 | -0.32 | i
64 | COC(=O)CC1C(=O)NCCN1C(=O)c1sc2ccccc2c1Cl (stereo not given) | -0.11 | i
65 | COC(=O)N(NC(=O)C(O)(c1ccccc1)c1ccccc1)c1ccccc1 | 0.16* | -7*
66 | CCn1c(-c2csc(-c3ccccc3)n2)n[nH]c1=S | 1.1 | i
67 | O=C(CN1CCCc2ccccc21)NCCc1ccc(Cl)cc1 | -0.97* | -11*
68 | CSc1ccc(/C=C2\CCn3c2nc2cc(C(=O)O)ccc2c3=O)cc1 | 0.43 | i
69 | O=C1CCCN2N=C(SCC(=O)Nc3ccc(OC(F)(F)F)cc3)SC2=N1 | 2.3 | i
70 | Cc1ccc(Cl)cc1N1CCN(C(=O)c2ccc(NS(=O)(=O)c3c(C)noc3C)cc2)CC1 | -0.72 | i

# Next part
nr | Compound | KCNQ2 block baseline | KCNQ2 block
71 | CC(C)CNC1=C(C(=S)Nc2ccccc2)C(=O)CC(C)(C)C1 | 0.74 | i
72 | COC(=O)c1cc(OC)c(OC)cc1NC(=O)CSc1nnnn1Cc1ccccc1 | 0.38 | i
73 | CCc1cc(=O)oc2cc(C)cc(OCc3nn[nH]n3)c12 | -0.55 | i
74 | CCC1(C)N=C(c2ccc3c(c2)OCO3)CC(c2ccccc2O)N1 (stereo not given) | 0.87 | i
75 | Cc1cc(=O)n2nc(N3CCCC(C(=O)NCCCN4CCc5ccccc5C4)C3)sc2n1 (stereo not given) | -1.7 | i
76 | CC(=O)Nc1ccc(N=NN2CCOCC2)cc1 | -0.24 | i
77 | CCN(Cc1ccccc1)C(=O)COC(=O)c1cc(S(=O)(=O)Nc2c(C)n(C)n(-c3ccccc3)c2=O)ccc1C | -1.2 | i
78 | O=C(CN1CCCCCCC1)Nc1ccc(Cl)cc1Cl | -0.06 | i
79 | CC(C)c1ccc(CNc2ncccn2)cc1 | -0.99 | i
80 | Cc1nc2ccc(NC(=S)N3CCN(c4ccccn4)CC3)cc2nc1C | 0.46 | i

# Additional records
nr | Compound | KCNQ2 block baseline | KCNQ2 block
81 | Cc1c(Cl)cccc1NC(=O)CS(=O)(=O)c1ccccc1 | 1.1 | i
82 | Cc1cccc(NC(=O)C(C)SCc2nc3sc4c(c3c(=O)[nH]2)CCCC4)n1 (stereo not given) | 1.2 | i
83 | Nc1c(N(CCC2=CCCCC2)C(=O)CCCOc2ccccc2)c(=O)[nH]c(=O)n1Cc1ccccc1 | 0.58 | i
84 | COc1ccccc1NC(=O)N1c2ccc(F)cc2CCC1C (stereo not given) | -0.92 | i
85 | CCC(=O)Nc1nc2ccc3sc(C)nc3c2s1 | -2.1 | i
86 | CCOc1cc(NC(=S)NCC2CCCO2)c(OCC)cc1NC(=O)C1CC1 (stereo not given) | 0.28 | i
87 | Cn1c(N)c(C(=O)COC(=O)c2cnc(Cl)c(Cl)c2)c(=O)n(C)c1=O | 0.19 | i
88 | CCOc1ccc(CN2CCN(Cc3cn(CC)nc3C)CC2CCO)cc1 (stereo not given) | 2.8 | i
89 | O=C1SCCC1NS(=O)(=O)c1ccccc1[N+](=O)[O-] (stereo not given) | -0.11 | i
90 | O=C1C(Cl)=C(N2CCCCC2)C(=O)N1c1ccccc1Cl | 0.14 | i

# Additional results follow:
nr | Compound | KCNQ2 block baseline | KCNQ2 block
91 | O=C(c1ccccc1)c1nccc2ccccc12 | -0.26 | i
92 | O=C(Nc1ccc(N2CCOCC2)cc1)C1CCCN(S(=O)(=O)c2cccc(C(F)(F)F)c2)C1 (stereo not given) | -4.6 | i
93 | Cc1cccc(-c2noc(CN(C)S(=O)(=O)c3cc(Cl)ccc3Cl)n2)c1 | -0.93* | -11*
94 | COc1ccc(C2C(C(=O)c3ccco3)=C(O)C(=O)N2CC2CCCO2)cc1OC (stereo not given) | -0.06 | i
95 | O=C(COc1ccc2c(-c3ccccc3)cc(=O)oc2c1)N[C@H](Cc1c[nH]c2ccccc12)C(=O)O | -0.41 | i
96 | CCSc1nc2c(c(=O)[nH]1)C(c1cccs1)C(C(=O)OC)=C(C)N2 (stereo not given) | -3.2 | i
97 | CCn1c(COc2cccc(OC)c2)nnc1SCC(=O)Nc1ccccc1C(=O)OC | -0.2* | -5.7*
98 | CC1CCCN(C(=O)C2CCN(S(=O)(=O)c3ccc4c(c3)CC(C)N4C(=O)C3CC3)CC2)C1 (stereo not given) | -1.8 | i
99 | O=C(c1cccs1)N1CCCC(c2nc3c(nnn3Cc3ccccc3Cl)c(=O)[nH]2)C1 (stereo not given) | -0.45 | i
100 | Cc1ccc(C(=O)c2c(NC(=O)c3cccnc3)sc3c2CCCC3)cc1 | -0.12 | i

# Carrying on.
nr | Compound | KCNQ2 block baseline | KCNQ2 block
101 | Cc1ccc2nc(C)/c(=N\O)c(C)nc2c1 | -0.26 | i
102 | CCC(CC)C(=O)c1c[nH]c(C(=O)N2CCN(c3ccccc3F)CC2)c1 | -0.62 | i
103 | CCOc1cccc2sc(=NC(=O)c3ccc(S(=O)(=O)N4CCOCC4)cc3)n(C)c12 | 0.84 | i
104 | Cc1cc(Nc2ccc([N+](=O)[O-])cc2)c2ccccc2n1 | -0.56 | i
105 | Cc1ccc(C)n1N1C(=O)/C(=C\c2ccc(Cl)cc2)SC1=S | 0.64 | i
106 | CCc1sc(N2C(=O)C3C4CCC(C4=C(C)C)C3C2=O)nc1-c1ccccc1 (stereo not given) | -3 | i
107 | N#Cc1cc2c(nc1SCC(=O)O)CCCCC2 | 3.6 | i
108 | CC(C)OCCCNC(=O)c1cc2c(s1)CS(=O)(=O)C2 | -1.6 | i
109 | COc1ccc(N=Nc2c(C)[nH]c3ccccc23)cc1 | 0.09 | i
110 | Cc1sc(N)nc1-c1cccs1 | 0.31 | i

# Next part.
nr | Compound | KCNQ2 block baseline | KCNQ2 block
111 | S=C1NC2(CCS1)Oc1ccccc1C1CC(c3ccccc3)=NN12 (stereo not given) | 0.78 | i
112 | CN(C(=O)COC(=O)c1ccc(Cl)cc1N)C1CCS(=O)(=O)C1 (stereo not given) | -1.2 | i
113 | COc1ccc(/C=N/NC(=O)c2ccncc2)cc1CN1CCCc2ccccc21 | -0.08 | i
114 | NC(=O)c1ccsc1NC(=O)COC(=O)C1CCCN1C(=O)c1cccs1 (stereo not given) | -0.47 | i
115 | Cc1cc([N+](=O)[O-])nn1Cc1noc(C(=O)NCCCn2ccnc2)n1 | 1.7 | i

# Screening data from PubChem.

# A portion of the library (hit frequency here may not be typical).
